# Screening data: PubChem BioAssay, several laboratories
# Bfl-1 A1 inh: inhibitors of the anti-apoptotic protein A1, read as caspase activation; caspase activation, % (test concentration not listed); MEF A1-2A-BIM cells, Caspase-Glo 3/7 luminescence, 3 h; percent of clofoctol response, vehicle zero; hit rate 0.066% among 330,000; AID 2462;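 active means over half of replicate activation scores above 10%, or exactly half above 10 with the replicate mean above 10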;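 further: wells of about 30 µL received 50 nL stock; many hits fall short of the cut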
# Calb FLC: C. albicans growth modulation with fluconazole; C. albicans CaCi-2 (fluconazole-resistant clinical isolate) + fluconazole, Alamar Blue growth, 48 h; growth inhibition, % (no concentration beside the values); hit rate 0.57% among 300,000;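 active means most replicates above 75%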;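 further: all wells also contain fluconazole at 8 µg/ml as a sub-toxic cotreatment; 0% = median of DMSO wells and 100% = median of geldanamycin control wells; wells of about 8 µL received 7.5 nL stock; the first replicate is given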
# B2AR ag: human beta-2 adrenergic receptor agonism by FAP; P07550; Am2.2-beta2AR cells, FAP receptor internalization, flow cytometry; reference of the scale not given here; response, % (no concentration beside the values); hit rate 0.43% among 340,000; AID 504454;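 active means response above a set limit, near 3 SD of response in nonfluorescent compounds, cut at about 42% in these data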;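 further: stock transfer was 100 nL into about 11 µL; a reference agonist was the positive control; negative values mostly stem from fluorescent compounds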
# Target sequence (P07550 whole entry, looked up): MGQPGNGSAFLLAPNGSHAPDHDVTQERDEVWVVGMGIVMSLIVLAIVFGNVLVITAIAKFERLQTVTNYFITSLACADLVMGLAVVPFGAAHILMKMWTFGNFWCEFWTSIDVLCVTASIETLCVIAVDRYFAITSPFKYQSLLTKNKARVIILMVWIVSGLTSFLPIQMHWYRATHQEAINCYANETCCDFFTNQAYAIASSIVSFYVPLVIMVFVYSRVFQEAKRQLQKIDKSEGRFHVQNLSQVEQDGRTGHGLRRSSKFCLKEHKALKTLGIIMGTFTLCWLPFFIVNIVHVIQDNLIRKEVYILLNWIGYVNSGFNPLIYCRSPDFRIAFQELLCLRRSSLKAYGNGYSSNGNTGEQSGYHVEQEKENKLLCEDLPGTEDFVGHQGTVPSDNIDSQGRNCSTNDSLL
# Beta cell apopt: blocks beta cell apoptosis. INS-1E cytokine-induced death, ATP luminescence, 48 h; percent of positive-control rescue, neutral wells zero. protection from apoptosis, % (no concentration beside the values). hit rate 0.8% among 300,000;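 active means all replicates at 75% or more, or half of them and the mean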;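 further: 0% = cytokine-treated negative control wells and 100% = positive control rescue; higher means more ATP so stronger rescue from cytokine killing; wells of about 40 µL received 100 nL stock; the first replicate is given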
# rRNA inh HTS: inhibitors of bacterial rRNA selective over humanized ribosomes; E. coli WT GFP vs humanized-ribosome RFP mutants, fluorescence, 24 h; active compounds read low; DMSO median 0, no signal -100; GFP signal change (wild-type ribosome), % (concentration not given with the values); hit rate 1.6% among 350,000; AID 720706;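 active means significant combined selectivity score with lowered wild-type GFP, culture density cut under 30%, mutant RFP and density less affected; inactive means any of these conditions unmet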; further: one replicate is shown; some compounds called inactive have numbers as strong as hits
# ALR H2O2 inh: human ALR oxidase inhibition via reduced H2O2. P55789. purified ALR, DTT oxidation, H2O2 HRP-luminol luminescence. inhibition, % (concentration not given with the values). hit rate 3.8% among 290,000;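 active means mean and each replicate at 75% or more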;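 further: stock transfer was 7.5 nL into about 7.5 µL; 0% = neutral wells and 100% = wells with inactivated enzyme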
# Target sequence (P55789 whole entry, looked up): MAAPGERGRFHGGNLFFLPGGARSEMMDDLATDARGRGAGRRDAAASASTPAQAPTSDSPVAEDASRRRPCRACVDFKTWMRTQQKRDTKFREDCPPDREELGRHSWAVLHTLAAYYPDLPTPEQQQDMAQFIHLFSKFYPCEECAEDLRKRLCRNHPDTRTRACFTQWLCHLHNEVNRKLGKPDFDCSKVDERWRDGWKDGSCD
# T cruzi inh: blocks replication of Trypanosoma cruzi; T. cruzi beta-gal in NIH3T3, luminescence, 90 h; AID 1885; inhibition, % (no concentration beside the values); hit rate 1.4% among 300,000;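 active means mean inhibition across valid replicates above about 55%, limit read from the data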;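 further: signal also drops with host cell toxicity which is not excluded here; 0% = plate median of DMSO wells and 100% = zero luminescence signal; higher percent means less beta-gal luminescence so fewer parasites; stock transfer was 50 nL into about 50 µL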
# LANA-H2B inh: blocks KSHV LANA binding to histone H2A/H2B; Q9QR71; cell-free LANA-H2A/H2B peptide, fluorescence polarization; inhibition, % (test concentration not listed); hit rate 0.6% among 320,000; AID 2629; in the data active means inhibition mostly above about 10%, no sharp cut-off; inactive means mostly below about 6.7%;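 further: stock transfer was 7.5 nL into about 10 µL; 0% = median of vehicle wells and 100% = median of positive control wells; one replicate is shown; the record names a cut of 25% in any replicate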
# rRNA inh HTS OD600: also measured in rRNA inh HTS; calls as there; OD600 change, %; measured here: OD600 growth;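 optical density of the mix in the first replicate; 0 = DMSO median and -100 = no signal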
# rRNA inh HTS RFP: recorded beside rRNA inh HTS, whose call it bears; RFP signal change, %; measured here: RFP humanized mutant strains;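 first replicate; 0 = DMSO median and -100 = no signal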
# Numbers without * were called inactive; i = inactive; . = no result given.
SMILES,Bfl-1 A1 inh,Calb FLC,B2AR ag,Beta cell apopt,rRNA inh HTS,rRNA inh HTS OD600,rRNA inh HTS RFP,ALR H2O2 inh,T cruzi inh,LANA-H2B inh
Fc1ccc(OCCOCCOc2cccc3[nH]ccc23)cc1,2.3,5.5,-3.3,-4.2,6.8,5.5,-0.5,11.5,-0.6,-5.9
Cc1[nH]c(=S)[nH]c(=O)c1Cc1ccc(OCC(C)C)cc1,1.3,-7.5,-1.0,-0.2,13.8,12.1,-2.1,-0.1,24.0,-8.7
COc1c(-c2ccc(O)c(O)c2)oc2cc(O)cc(O)c2c1=O,2.5,-4.8,16.8,.,.,.,.,98.5*,-16.5,5.2
COC(=O)c1cc(NC(=O)c2cccs2)ccc1N1CCOCC1,-0.3,2.5,-13.1,0.0,.,.,.,15.3,-8.2,-2.1
CC(Sc1nc2ccccc2c(=O)n1C)C(=O)Nc1ccc2c(c1)OCCO2 (stereo unspecified),-0.2,.,4.8,13.6,0.9,-4.5,-2.2,-7.7,.,5.6
CCOC(=O)CSc1nnc(-c2ccncc2)o1,0.0,34.7,2.1,.,.,.,.,-0.8,3.8,1.5
COc1cc(Cl)cc2c1Sc1ccccc1/C2=C/CCN(C)C,2.3,.,26.0,.,.,.,.,-4.2,26.4,-12.4
CCc1ccc(OC)c(S(=O)(=O)Nc2ccccc2C)c1,1.3,-10.3,-13.1,-2.3,3.5,9.1,-2.5,-5.4,-0.1,6.5
Cc1cc(C)nc(NC(=O)c2ccc(Br)cc2)n1,0.6,-6.0,7.1,-4.1,13.6,5.8,0.3,-0.3,-4.6,2.5
COCCN(CCOC)C(=O)c1cc2c(=O)n3ccccc3nc2s1,-1.7,-8.1,-19.3,-8.7,.,.,.,-70.6,3.8,1.7
Cc1ccc(-c2nnc(Oc3cccc(C)c3)c3ccccc23)cc1,0.5,-4.4,2.1,5.9,.,.,.,-6.0,2.8,4.3
CC(Sc1nc(O)c(-c2ccccc2)c(=O)[nH]1)C(=O)Nc1ccc(Cl)cc1 (stereo unspecified),-1.4,-5.1,-2.7,-5.8,-23.9*,-2.9*,6.1*,.,-21.6,3.9
CCN(CC)S(=O)(=O)c1ccc(S(=O)(=O)N2CCN(CCC#N)CC2)cc1,0.4,-2.3,1.8,-3.6,12.7,7.3,1.1,-23.4,8.4,2.7
COc1cccc(CNS(=O)(=O)/C=C/c2ccc3c(c2)OCO3)c1,0.1,-36.2,-9.7,-8.0,.,.,.,1.5,-4.2,-2.6
Cc1ccc(N(CC(=O)N2CCc3ccccc32)C2=NC(=O)CS2)cc1,-0.3,-21.9,-3.0,-0.8,.,.,.,.,6.8,-2.6
Cc1occc1-c1nnc(SCC(=O)c2ccc(F)cc2)n1Cc1ccco1,0.3,15.1,-6.9,-5.2,.,.,.,30.4,10.5,4.1
CC(C)(C)OC(=O)NCCC(=O)N/N=C/c1cccc2cccnc12,-0.7,-5.1,3.9,-3.6,-16.3*,2.3*,0.4*,-13.6,-12.6,-3.1
NC(=O)Cc1ncc(C(F)(F)F)cc1Cl,0.1,1.1,-4.8,-7.0,12.5,6.7,-2.3,5.8,-11.9,3.0
Cc1ccc(CN(C)c2nc(-c3cccnc3)nc3ccccc23)o1,0.3,-9.7,44.8*,.,-25.9,-43.6,12.7,12.9,12.6,-2.0
Cc1ccc(C(=O)CC2(O)C(=O)N(Cc3ccc4c(c3)OCO4)c3ccccc32)cc1 (stereo unspecified),0.9,-45.0,12.0,-2.1,.,.,.,-1.3,-3.7,-5.2
O=C(CSc1nnnn1C1CCCCC1)NCc1cccs1,0.5,18.1,-2.0,-2.2,-1.4,-4.7,-0.8,-5.1,-11.1,-3.1
COC(=O)[C@H](Cc1ccccc1)NC(=O)[C@@H](N)CC(=O)O,-0.6,.,-0.7,4.5,-2.7,-3.6,1.1,-21.7,-3.2,4.4
NS(=O)(=O)c1ccc(NC(=O)CCCC(=O)O)cc1,0.3,-14.6,3.8,-2.5,7.4,7.4,2.8,-8.7,-6.0,2.7
Cc1ccc(-c2nn(-c3cc(Cl)ccc3[N+](=O)[O-])c(=O)c3ccccc23)cc1,0.0,7.1,20.7,7.4,13.8,8.0,-5.1,-6.3,42.0,-2.0
Cc1ccc(O)c(NC(=O)c2cc(-c3ccc(F)cc3)on2)c1,-8.0,-3.1,5.7,0.5,13.1,6.6,-6.8,2.9,-52.4,-3.9
O=C(COC(=O)C1CC2C=CC1C2)Nc1cccc(S(=O)(=O)N2CCCCC2)c1 (stereo unspecified),1.1,0.6,2.1,-4.5,2.1,3.8,-4.8,.,-3.9,.
COc1ccc(CNC(=O)c2ccc3c(c2)N(C)CCS3)cc1,0.5,-7.6,-10.6,-0.4,-6.5,-18.9,-8.3,95.9*,21.9,-7.3
CC(C)(C)C(=O)Nc1ccc(S(=O)(=O)c2ccc(NC(=O)C(C)(C)C)cc2)cc1,0.6,-14.8,3.8,4.1,1.0,0.5,-5.1,-5.7,-4.8,2.9
C=CCNCCOCCOc1ccc(Cl)cc1C(C)(C)C,0.3,-63.8,6.6,-11.9,.,.,.,-4.0,15.7,3.4
CCOc1ccc(NS(=O)(=O)c2ccc(C(=O)NCc3ccccn3)cc2)cc1,0.1,-11.1,-1.5,-1.9,-1.4,2.3,1.3,-4.5,2.5,-4.2
O=c1c2cn[nH]c2[nH]c(=S)n1-c1cccc2ccccc12,0.5,4.4,2.6,0.3,.,.,.,22.2,-2.2,3.7
Cc1ccc(-c2csc3nc(C)n(N)c(=O)c23)cc1,-0.3,7.8,3.1,0.2,4.1,-6.6,-0.7,-4.9,-11.4,7.8
c1ccn2c(SCc3ccc4c(c3)OCCO4)nnc2c1,-0.8,.,0.7,2.6,4.6,2.0,-3.2,7.1,.,4.2
CC1CCc2nc3ccccc3c(C(=O)OCC(=O)NC3CCS(=O)(=O)C3)c2C1 (stereo unspecified),1.0,-5.7,-1.2,0.7,-28.9*,-21.6*,4.8*,-7.3,15.0,3.9
O=C(CC(=O)Nc1ccccc1F)Nc1ccccc1F,-0.5,-7.5,-0.4,.,0.4,9.1,0.5,.,10.4,0.6
CCn1c(NCc2ccccn2)nc2ccccc21,-1.4,19.7,-4.0,-3.1,.,.,.,.,-12.3,-0.2
COc1ccc(/C=C/c2cc(C(F)(F)F)[nH]c(=O)n2)cc1OC,0.3,-2.9,4.5,-21.6,31.9,-3.6,-7.6,-3.9,-5.0,4.2
C/C=C/C(=O)Nc1cccc(C2=NOC3(C2)C[C@H](C(N)=O)N(C(=O)/C=C/C)C3)c1 (stereo partly specified),0.5,-4.1,5.2,0.8,4.4,1.1,1.6,-13.1,-20.4,-5.3
Cc1ccc(NC(=O)c2ccc(C(C)(C)C)cc2)cc1-n1cnnn1,0.4,-4.0,14.9,5.3,-7.0,-1.2,-2.0,-6.5,8.7,8.1
CC(C)(C)OC(=O)NCc1ccc(CNC(=O)c2nc[nH]c2C(=O)N2CCN(c3ccccc3)CC2)cc1,0.0,.,1.8,-4.5,-4.1,-8.6,12.8,6.1,.,2.9
COc1ccc(OCC(O)CN2CCOCC2)cc1 (stereo unspecified),1.2,3.2,-3.5,-3.5,5.1,9.3,-0.7,.,-1.9,2.1
COc1cc(-c2cc[n+](C)cc2)ccc1O,0.7,37.1,-0.7,-12.7,6.8,-2.8,-3.2,99.0*,-9.0,0.0
Cc1cccc(NS(=O)(=O)c2c(C)[nH]c(C)c2C(=O)N2CCCC2)c1,0.7,-25.4,3.0,-6.5,4.3,12.6,-0.5,-1.7,2.6,0.7
CC1=C(C#N)c2nc(N)c(C#N)c(C)c2/C1=C\c1ccc(OCC(=O)O)c(Cl)c1,0.7,14.7,7.3,-0.5,8.8,4.5,30.0,.,-11.1,3.0
CCOC(=O)c1c(C)[nH]c(C(=O)OCCOc2ccccc2C)c1C,.,9.4,-14.6,.,7.0,10.8,0.9,.,12.5,.

# Entries listed so far that bear a hit mark in B2AR ag:
Molecule | B2AR ag | rRNA inh HTS | rRNA inh HTS OD600 | rRNA inh HTS RFP | ALR H2O2 inh | LANA-H2B inh
Cc1ccc(CN(C)c2nc(-c3cccnc3)nc3ccccc23)o1 | 44.8* | -25.9 | -43.6 | 12.7 | 12.9 | -2.0

# Carrying on.
SMILES,Bfl-1 A1 inh,Calb FLC,B2AR ag,Beta cell apopt,rRNA inh HTS,rRNA inh HTS OD600,rRNA inh HTS RFP,ALR H2O2 inh,T cruzi inh,LANA-H2B inh
COc1ccccc1-c1nnc(C2CCN(S(=O)(=O)c3ccc([N+](=O)[O-])cc3)CC2)o1,0.8,-4.4,11.3,2.4,9.0,8.7,0.6,-16.4,-9.1,5.2
O=c1c2ccccc2nc(/C=C/c2cccnc2)n1Cc1ccccc1,.,-10.6,-7.0,.,-34.9,-43.5,-9.4,.,34.6,.
CN1CCN(C(=O)c2cc3c(s2)-c2ccccc2S(=O)(=O)C3)CC1,1.2,-4.0,-0.6,.,-1.6,-1.1,0.9,31.1,-5.5,0.8
COc1cc(NC(=O)Cn2c(C)cc3ccccc3c2=O)cc(OC)c1OC,1.2,5.4,-3.3,3.2,.,.,.,14.8,-5.4,0.5
CC1CC(C)CN(c2ncnc3c2cnn3-c2ccc(Cl)cc2)C1 (stereo unspecified),-0.3,1.5,3.2,.,-2.4,6.6,-3.3,-13.4,21.3,-1.0
CN(C)C(=O)c1ccc(NC(=O)COC(=O)C2CCN(S(=O)(=O)c3ccc4c(c3)OCCO4)CC2)cc1,1.0,9.0,-0.1,-6.6,7.4,3.3,-0.1,.,-4.1,-4.0
O=C(COc1ccccc1)N1CCN=C1SCc1cccc(F)c1,1.0,-11.9,-4.2,-10.5,0.9,1.0,5.8,15.7,3.9,5.5
Cc1ccc(C)c2nc3sc(C(=O)N4CCCc5ccccc54)c(N)c3cc12,-0.3,1.2,-401.1,-22.8,.,.,.,.,65.9*,-0.2
CCOC(=O)C1CCCN(C(=O)CCC(=O)Nc2ccc3nc(N4CCOCC4)cc(C)c3c2)C1 (stereo unspecified),1.8,12.9,13.8,-1.5,.,.,.,.,2.5,6.2
COc1ccc([N+](=O)[O-])cc1NC(=S)NC(NC(=O)C(c1ccccc1)c1ccccc1)C(Cl)(Cl)Cl (stereo unspecified),2.7,19.0,11.5,35.8,.,.,.,-2.5,46.8,2.1
Cc1cc(C(=O)NNC2CC(=O)N(c3ccc4ccccc4c3)C2=O)c(C)o1 (stereo unspecified),0.3,-6.2,2.3,-5.0,0.5,2.0,3.2,2.5,0.8,-0.7
CCOC(=O)c1c(CN(CC)CC)oc2ccc(OC)cc12,-0.1,-6.9,-11.6,-4.7,.,.,.,3.7,14.7,-3.9
NC(=O)c1ccc(SCC(=O)OCC(=O)NCc2cccs2)c([N+](=O)[O-])c1,-0.1,.,-0.5,-4.3,-7.1,3.7,3.2,.,.,i
COc1ccc(Cl)cc1C(=O)NNC(=O)CN1C(=O)C2CC=CCC2C1=O (stereo unspecified),1.4,-10.2,-7.6,-7.4,9.3,3.6,5.8,-4.4,1.7,-1.1
COc1ccc2c(C)cc(SCC(=O)NC3CCCCC3)nc2c1,0.5,.,-8.9,0.8,3.1,9.3,-0.6,-0.7,.,-0.8

# Not all compounds are listed (hit frequency here may not be typical).
